Vaccinia Venus = qHTS for Stage-Specific Inhibitors of Vaccinia Orthopoxvirus: Venus Reporter Primary qHTS | hit rate 0.46% among 330,000 | Potency, µM (top dose mostly 36.5 µM), without a hit: top-dose activity change, negative = inhibition, actives largely listed as inhibitors | Vaccinia virus Venus reporter expression, fluorescence; active means well fitted inhibition curve with a large enough effect; inconclusive means small, poorly fitted or top-dose-only effect; inactive means no such curve, though single readings can be large or run the other way; tested in A549 cells; further: nearly all actives have a fitted effect of over 30% in size; inactives centre near -10
Vaccinia mCherry = qHTS for Stage-Specific Inhibitors of Vaccinia Orthopoxvirus: mCherry Reporter Primary qHTS | Vaccinia virus mCherry reporter infection, fluorescence; about a quarter of the inactives have no number | hit rate 0.63% among 310,000 | Potency, µM (highest dose often 36.5 µM), for the others: top-dose activity change, negative = inhibition, most hits filed as inhibitors; active = well fitted inhibition curve with a large enough effect; inconclusive = small, poorly fitted or top-dose-only effect; inactive = no such curve, though single readings can be large or run the other way; tested in A549 cells; further: nearly all actives have a fitted effect of over 35% in size; inactives centre near -10
Active calls of the source: *; i = inactive; ? = inconclusive; / = not tested or not shown; & = joins results of further samples; [ ] = another dose, or the depositor's remark. On the % scale 0 is the no-effect control and ±100 the full control effect; potency means the concentration at half of the fitted maximal effect.

Values run as follows: Vaccinia Venus, Vaccinia mCherry
O=C(COc1ccc(F)cc1)Nc1cccc(OCc2cc(=O)n3ccccc3n2)c1
    -9.7%, i
Cc1cc2nncn2c(Cc2ccccc2)n1
    0.0%, i
O=C(CSc1nc2ccccc2s1)CSc1nc2ccccc2s1
    -2.7%, -1.3%
CSc1ccc(CCNC(=O)c2ccc3c(c2)nc2n3CCOC2)cc1
    -8.2%, -9.2%
Cc1ccccc1Cn1c(=O)n(-c2ccc(Cl)cc2)c(=O)c2c3c(sc21)CCCC3
    1.0%, -0.8%
Cc1c(C)n(Cc2ccc(F)cc2)c2ccc(C(=O)NCc3ccco3)cc12
    -23.0%, -24.7%
Cc1nc2ccc(S(=O)(=O)N(CC(=O)Nc3cccc(F)c3)Cc3ccccc3)cc2s1
    -6.4%, -3.5%
COc1cc(OC)cc(C(=O)N2CCN(c3ccc(N4CCOCC4)nn3)CC2)c1
    -5.8%, -20.2%
CCOC(=O)c1[nH]c2ccccc2c1NC(=O)c1ccc(OC(C)C)cc1
    8.5%, -0.8%
Cc1cc(C)c(C(=O)C2OC(=O)C(C)(C)C(=O)C2(C)C)c(C)c1 (stereo not drawn)
    -18.8%, /
CC(=O)C1=C(c2ccccc2)NC(=O)NC1c1ccc(O)c(O)c1 (stereo not drawn)
    -10.3%, ?
COc1cc(OC)c2c(-c3cccc(-c4ccc(C(C)=O)cc4)c3)cc(=O)oc2c1
    -7.5%, -33.3%
COc1ccc(N(C(=O)CNC(=O)c2ccco2)C(C(=O)NC2CCCC2)c2ccncc2)cc1 (stereo not drawn)
    -3.7%, i
CN1CCN(C(=O)c2ccccc2NC(=O)c2cccc(Cl)c2)CC1
    -18.5%, i
COc1ccc(NC(=O)/C(=C/c2cccs2)NC(=O)c2ccco2)cc1
    2.6%, i
COC(=O)c1cc(-c2ccc(OC)c(OC)c2)on1
    -16.3%, i
CCCSc1nc(C)cc(C)c1S(=O)(=O)c1ccccc1C
    -21.3%, -4.5%
COCC(C)NC(=O)CSc1nnc(-c2cccc(S(=O)(=O)N3CCCCC3)c2)o1 (stereo not drawn)
    -5.2%, i
CC1Cc2nc(SCC(=O)Nc3ccc4c(c3)OCO4)n(Cc3ccccc3)c(=O)c2S1 (stereo not drawn)
    -12.2%, -8.3%
Cc1nc(SCC(=O)c2cc(C)n(C3CC3)c2C)c2ccccc2n1
    ?, -10.3%

Continued:
Values run as follows: Vaccinia Venus, Vaccinia mCherry
CCc1nc2c(OCCC3CCCCC3)cccn2c1N(C)C(=O)c1ccc(OC)cc1
    -24.6%, -23.0%
COC(=O)c1cccc(-n2c(=O)n(Cc3ccccc3)c(=O)c3[nH]cnc32)c1C
    -9.0%, -22.5%
CN(C)S(=O)(=O)c1ccc(C(=O)OCC(=O)Nc2ccc(OC(F)F)cc2)cc1
    -10.3%, -13.1%
CCOc1ccc(NC(=O)c2cnn(-c3ccc(C)c(Cl)c3)c2C2CCNCC2)cc1
    -15.7%, -3.5%
Cc1ccc(NC(=O)C2CCCN(c3nnc(C)c4c(C)n(-c5ccccc5)nc34)C2)c(Cl)c1 (stereo not drawn)
    -24.6%, -24.1%
O=C(CSCc1ccccc1)Nc1ccccc1C(=O)Nc1ccc(C(=O)O)cc1
    -10.5%, -20.2%
CN1CCN(S(=O)(=O)c2cccc(C(=O)NCc3ccc(Cl)cc3)c2)CC1
    -5.6%, -3.2%
CCCCc1c(O)nc(SCC(=O)Nc2ccc(C)cc2)n(-c2ccc(OC)cc2)c1=O
    -0.3%, -5.6%
COc1cc(=O)n2c(c1C(=O)NC(C)c1ccco1)CCN(C(=O)c1ccc(F)cc1Cl)CC2 (stereo not drawn)
    -12.2%, i
COc1ccc(OCc2cc(C(=O)NC(C)Cc3ccccn3)no2)c(Cl)c1 (stereo not drawn)
    -26.0%, -13.7%
O=[N+]([O-])c1cc(-c2nc(-c3ccccc3)no2)ccc1NC1CCCCC1
    0.8%, 3.0%
CC(C)CN(CC(C)C)C(=O)C12CCC(C)(C(=O)O1)C2(C)C (stereo not drawn)
    -14.4%, -12.8%
COc1cccc(C2CC(=O)Nc3c2c(=O)[nH]c2ncnn32)c1OC (stereo not drawn)
    5.8%, -6.2%
c1cncc(-c2noc(CC3CCCCC3)n2)c1
    0.3%, -7.4%
CS(=O)(=O)c1ccccc1C(=O)N(CCc1ccccc1)Cc1ccccc1
    -17.9%, i
CCc1nc2c(OCc3c(C)noc3C)cccn2c1N(C=O)Cc1ccccc1
    -5.3%, i
CC(C)NC(=O)Nc1n[nH]c(Nc2ccc(Cl)cc2)n1
    -13.8%, -26.3%
O=C(Nc1cccc(S(=O)(=O)N2CCCCC2)c1)c1cc(=O)[nH]c2ccccc12
    -6.9%, -0.1%
N#Cc1cccc(NC(=O)Cn2nc(Cc3ccncc3)c3ccccc3c2=O)c1
    -15.1%, -6.2%
Cc1ccc(C)c(OCc2cc(C(=O)NC(c3ccccn3)C(F)(F)F)no2)c1 (stereo not drawn)
    -19.3%, -6.7%

More structures follow:
Values run as follows: Vaccinia Venus, Vaccinia mCherry
COc1ccc(OS(=O)(=O)c2ccc(N3C(=O)CCC3=O)cc2)cc1
    -9.0%, i
CCOCC(=O)Nc1cc(S(=O)(=O)N2CCOCC2)ccc1N1CCCCC1
    -4.9%, -2.8%
CCN(CC)CCNC(=O)c1sc2ncccc2c1-n1cccc1
    -6.9%, -8.4%
CCCCc1nnc(NC(=O)c2ccccc2OCc2c(C)noc2C)s1
    -12.5%, -1.3%
O=[N+]([O-])c1ccc(N2CCCCC2)cc1NCCOc1ccccc1
    -3.3%, -14.3%
CCC(C(=O)NC1CCCCCC1)n1nc(C)c2c(C)n(-c3ccccc3)nc2c1=O (stereo not drawn)
    -13.9%, i
CC(/C=C1\SC(=S)N(CCC(=O)Nc2ccc(O)cc2)C1=O)=C\c1ccccc1
    -8.7%, -3.4%
CCn1ccc2cc(S(=O)(=O)N3CCC(C(=O)NCCc4ccccc4)CC3)ccc21
    -3.1%, -14.6%
CCCCCC(=O)N1CC2(CC(c3cccc(NC(=O)[C@@H]4CCC(=O)N4)c3)=NO2)C[C@@H]1C(N)=O (stereo partly drawn)
    -1.3%, -14.6%
Cc1cc(Cl)ccc1C(O)c1ncc(-c2ccc(F)cc2)[nH]1 (stereo not drawn)
    -10.8%, -0.5%
O=C(NCCCn1ccnc1)c1ccc(Br)o1
    -6.3%, -11.0%
CCOC(=O)CS(=O)(=O)c1ccccc1
    -6.8%, -11.2%
Cc1ccc(NC(=O)CN(C)C(=O)c2nn(C)c(=O)c3ccccc23)cc1
    16.7%[7.34 µM], 20.6%[7.34 µM]
CCN(Cc1cccc(S(=O)(=O)O)c1)c1ccc(C(=C2C=CC(=[N+](CC)Cc3cccc(S(=O)(=O)O)c3)C=C2)c2ccccc2S(=O)(=O)[O-])cc1
    -10.8%, ?
COC(=O)c1cc(-c2c(C)oc3cc(OC)ccc3c2=O)c(C)o1
    -14.6%, -18.3%
CC1=CC(C)(C)Nc2ccc(OC(=O)CCN3C(=O)c4ccccc4C3=O)cc21
    71.6%[activator], -4.8%
Cc1c(Br)c(C(F)(F)F)nn1CC(=O)N1CCCC1
    -12.0%, -7.2%
O=C(Cn1cc2c(n1)CCCC2)NCCCN1CCCC1
    -3.9%, 3.0%
CCOC(=O)c1cn(-c2ccccc2)nc1-c1cccnc1
    -13.6%, -0.6%
CCSc1nc2c(cnn2-c2ccc(C)c(C)c2)c(=O)[nH]1
    -12.2%, i

For reference, some entries already given.
Values run as follows: Vaccinia Venus, Vaccinia mCherry
Cc1ccc(NC(=O)C2CCCN(c3nnc(C)c4c(C)n(-c5ccccc5)nc34)C2)c(Cl)c1 (stereo not drawn)
    -24.6%, -24.1%
O=C(CSCc1ccccc1)Nc1ccccc1C(=O)Nc1ccc(C(=O)O)cc1
    -10.5%, -20.2%
CN1CCN(S(=O)(=O)c2cccc(C(=O)NCc3ccc(Cl)cc3)c2)CC1
    -5.6%, -3.2%

The listing continues:
Values run as follows: Vaccinia Venus, Vaccinia mCherry
OC(COCC1COc2ccccc2O1)CN1CCN(c2ccc(F)cc2)CC1 (stereo not drawn)
    -29.8%, -14.6%
CCOc1ccccc1CN1CCNC(=O)C1CC(=O)NCc1nc(C)cs1 (stereo not drawn)
    -10.0%, i
CCN(CC)c1nc(Oc2ccc(C(=O)NN)cc2)nc(Oc2ccc(C(=O)NN)cc2)n1
    -18.7%, -0.7%
CCCc1cc(=O)[nH]c(SCC(=O)OCc2ccccc2)n1
    -6.9%, -0.2%
CCN(CC)S(=O)(=O)c1cccc(C(=O)Nc2cc3oc4ccccc4c3cc2OC)c1
    -4.5%, i
COc1cccc(/C=N/NC(=O)c2ccc(=O)n(C)c2)c1O
    2.5%, -4.8%
Cc1ccc(NS(=O)(=O)c2cc(C(=O)O)ccc2Cl)cc1
    -20.0%, -22.3%
Cc1cccc(N2CCN(c3ccc(NC(=O)/C=C(/C(=O)O)c4ccccc4)cc3)CC2)c1
    -7.9%, /
CC(=O)Nc1ccc(Nc2nnc(-c3ccc(C)c(S(N)(=O)=O)c3)c3ccccc23)cc1
    -15.7%&0.1%, -13.6%
O=C(Cn1c(=O)n(-c2ccccc2)c(=O)c2ccc(C(=O)NCc3ccc4c(c3)OCO4)cc21)Nc1ccc(Br)cc1F
    -24.8%, -17.2%
O=C(Nc1cccc(F)c1)/C(=C\c1ccco1)NC(=O)c1ccco1
    -6.0%[7.34 µM], -15.4%[7.34 µM]
Cc1c(C(=O)NC(C)C)sc2ncn(CC(=O)N3CCC(C)CC3)c(=O)c12
    -12.3%, i
Cc1cc(C)c2c(c1)NC(=O)C2(O)c1c[nH]c2ccccc12 (stereo not drawn)
    -11.9%, i
CCCn1ncc(CN2CCN(Cc3ccc(C)o3)C(CCO)C2)c1C (stereo not drawn)
    -13.9%, -14.7%
CS(=O)(=O)N(Cc1ccccc1)c1ccc(C(=O)Nc2ccccc2Sc2ccccc2)cc1
    -2.1%, -9.4%
CC(=O)C1(O)C(C)CC2C3CCC4CC(O)CCC4(C)C3=CCC21C (stereo not drawn)
    -3.8%, -6.3%
COc1ccc(NC(=O)c2cn(-c3ccccc3)nc2-c2cc3ccccc3o2)cc1
    -26.3%, ?
C=C(C)CSc1nc2ccccc2[nH]1
    -16.7%, -13.5%
CCCCNc1c(-c2ccc(OC)c(Sc3ccc(OC)cc3)c2)nc2ccccn12
    ?, ?
O=C(N/N=C/c1ccccc1)c1[nH]c2ccc(Br)cc2c1-c1ccccc1
    -27.9%, ?

More entries.
Values run as follows: Vaccinia Venus, Vaccinia mCherry
COc1ccc(CCNC(=O)CN(C)S(=O)(=O)c2ccc3nc(C)sc3c2)cc1OC
    -6.0%, -12.4%
COc1cc(S(=O)(=O)NCc2ccncc2)ccc1Br
    -21.1%, -28.1%
COc1ccc(CCNC(=O)CCC(=O)N2CC(C)Oc3ccc(Cl)cc32)cc1OC (stereo not drawn)
    -16.0%, -9.6%
c1ccc(/N=C2\N=C(Nc3ccccn3)c3ccccc32)nc1
    ?, ?
COc1cc(NC(=O)CN2C(=O)NC(C)(c3ccccc3)C2=O)c(C)cc1[N+](=O)[O-] (stereo not drawn)
    -10.7%, -17.3%
O=C(CCN1C(=O)C2CC=CCC2C1=O)NC1CCCCC1 (stereo not drawn)
    -0.6%, i
COc1ccc(CN2CCN(C(=O)c3cccs3)CC2)cc1Br
    -1.5%, /
COc1cc(C(c2c(O)c3ccccc3oc2=O)c2c(C)n(C)n(-c3ccccc3)c2=O)ccc1O (stereo not drawn)
    -12.3%&-2.2%, -11.2%&-10.3%
COc1ccccc1NS(=O)(=O)c1cc(NC(=O)c2sccc2C)ccc1N1CCCC1
    5.8%, -10.0%
Cc1ccc(-n2c(=O)c3c(c4cc(C)ccc4n3C)n(CC(=O)NCc3ccccc3Cl)c2=O)cc1
    -4.0%, 5.7%
CSc1cccc(NC(=O)CN(C)S(=O)(=O)c2ccc(F)cc2)c1
    -20.5%, -18.9%
CCSc1nnc(NC(=O)NC(C)(C(F)(F)F)C(F)(F)F)s1
    ?, -21.2%
Cc1ccccc1[C@@H](NC(=O)OC(C)(C)C)C(=O)OC(C)(C)C
    -2.5%, i
Cc1ccnc(SCCn2c(N3CCC(C)CC3)nc3c2c(=O)[nH]c(=O)n3C)n1
    4.3%, -17.1%
O=C(NN=C(Cc1ccccc1)Cc1ccccc1)c1ccc(F)cc1
    -17.2%, -12.3%
C[C@]12c3[nH]c4ccccc4c3CCN1C(=O)C(CC(=O)NCC13CC4CC(CC(C4)C1)C3)C[C@@H]2C(=O)N1CCCCC1 (stereo partly drawn)
    -28.6%, ?
C=C(C)CSc1nc2sc3c(c2c(=O)n1-c1ccccc1)CCC(C)C3 (stereo not drawn)
    -13.9%, -24.9%
CC(NS(=O)(=O)c1ccccc1)C(=O)Nc1ccc2c(c1)OCCO2 (stereo not drawn)
    -19.4%, -2.1%

Structures above with a nitro group on carbon, in the order listed:
Values run as follows: Vaccinia Venus, Vaccinia mCherry
O=[N+]([O-])c1cc(-c2nc(-c3ccccc3)no2)ccc1NC1CCCCC1
    0.8%, 3.0%
O=[N+]([O-])c1ccc(N2CCCCC2)cc1NCCOc1ccccc1
    -3.3%, -14.3%
COc1cc(NC(=O)CN2C(=O)NC(C)(c3ccccc3)C2=O)c(C)cc1[N+](=O)[O-] (stereo not drawn)
    -10.7%, -17.3%

Screens from PubChem BioAssay.
